ID4 SMM – binders of human ID4 protein. P47928. small molecule microarray, Flag-ID4 binding, fluorescence F/B. calls only. 1.2% of 31,000 active;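 active = spot signal over background at p below 0.07 in all four prints; compounds were printed on slides so no solution concentration is given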;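 note: a binder raises fluorescence above local background on the spot; about 2 pmol printed per array spot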
Target sequence (P47928 whole entry, looked up): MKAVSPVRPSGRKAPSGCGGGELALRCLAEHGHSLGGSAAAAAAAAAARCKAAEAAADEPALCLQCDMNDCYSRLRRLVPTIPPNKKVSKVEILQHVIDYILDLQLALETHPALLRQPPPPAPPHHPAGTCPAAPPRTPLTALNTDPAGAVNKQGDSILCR
Calls only; i = inactive; + = active, no number. Some of the compounds tested; rates above refer to the full screens.

SMILES	ID4 SMM
CC1CCc2c(sc3nc(SCC(=O)NCC4CCCO4)n(-c4ccccc4)c(=O)c23)C1 (centres undefined)	i
COc1ccccc1OCC(O)Cn1cnc2ccccc21 (centres undefined)	i
CN(C1CCCCC1)S(=O)(=O)c1ccc(NC(=O)C2CCCCC2C(=O)O)cc1 (centres undefined)	i
CSc1ccc(C(Nc2ccccn2)c2cc(Cl)c3cccnc3c2O)cc1 (centres undefined)	i
C[C@@H]1CN([C@H](C)CO)S(=O)(=O)c2ccc(-c3cccc(F)c3)cc2O[C@@H]1CN(C)C	i
CNC[C@H]1Oc2cc(C#CC(C)C)ccc2S(=O)(=O)N([C@H](C)CO)C[C@@H]1C	i
CNC[C@H]1Oc2cc(Br)ccc2S(=O)(=O)N([C@H](C)CO)C[C@H]1C	+
CC(=O)N(C)C[C@H]1Oc2ncc(C#CCC3CCCC3)cc2C(=O)N([C@@H](C)CO)C[C@H]1C	i
NS(=O)(=O)c1ccc(N=C2NC(=O)C(CC(=O)Nc3ccccc3)S2)cc1 (centres undefined)	i
O=C(N[C@H]1CC[C@H](CC(=O)N2CCc3ccccc3C2)O[C@@H]1CO)C1CCOCC1	i
COc1ccc(NC(=O)COc2ccccc2)c([N+](=O)[O-])c1	i
Cc1ccc(F)cc1S(=O)(=O)N1CCN(Cc2cccc(OCCO)c2)CC1	i
C[C@@H]1CN([C@@H](C)CO)S(=O)(=O)c2ccc(C#CC3(O)CCCC3)cc2O[C@H]1CN(C)C(=O)Cc1ccccc1	i
C/C=C/c1ccc2c(c1)O[C@@H](CN(C)C(=O)c1cnccn1)[C@H](C)CN([C@H](C)CO)S2(=O)=O	i
Cc1c(Cl)cccc1NC(=O)c1ccccc1OCC(=O)Nc1ccc2c3c(cccc13)CC2	i
CS(=O)(=O)N(CC(=O)NC1CCCC1)c1ccc2c(c1)OCCO2	i
COc1ccccc1N(CC(=O)N1CCN(C)CC1)S(C)(=O)=O	i
COc1ccc(-c2nnc(SCC(=O)O)n2-c2ccccc2)cc1	i
COc1cc2c(cc1OC)CN(C(=O)c1sc(-c3cnccn3)nc1C)CC2	i
Cc1ccccc1OCC(=O)Nc1cccc(Oc2ccc3c(c2)C(=O)NC3=O)c1	i
N#Cc1ccc2c(c1)N(CCCN1CCC(O)CC1)c1ccccc1S2	i
Cc1cc(C)c(S(=O)(=O)NCC(=O)Nc2ccc(F)c(Cl)c2)c(C)c1	i
O=C(Oc1ccccc1)c1cccc(COC(=O)c2cc(=O)[nH]c3ccccc23)c1	i
CC(C)NC(=O)N[C@@H]1C=C[C@H](CC(=O)NC2Cc3ccccc3C2)O[C@H]1CO	i
CN(C)CCCNC(=O)C[C@@H]1CC[C@H](NC(=O)Cc2cccnc2)[C@H](CO)O1	i

An excerpt of these results, bar-delimited.
smiles | ID4 SMM
O=C(N[C@H]1CC[C@H](CC(=O)N2CCc3ccccc3C2)O[C@@H]1CO)C1CCOCC1 | i
COc1ccc(NC(=O)COc2ccccc2)c([N+](=O)[O-])c1 | i
Cc1ccc(F)cc1S(=O)(=O)N1CCN(Cc2cccc(OCCO)c2)CC1 | i

(continued)
SMILES	ID4 SMM
Cn1c(SCC(=O)Nc2sc3c(c2C#N)CCCC3)nnc1-c1ccc(Cl)cc1Cl	i
COc1ccccc1N1CCN(CCNC(=O)Nc2cccc(C)c2C)CC1	i
N#Cc1ccc(-c2ccc(OC(=O)CS(=O)c3ccc(C(F)(F)F)cc3[N+](=O)[O-])cc2)cc1 (centres undefined)	i
C[C@H]1CN([C@@H](C)CO)S(=O)(=O)c2ccc(C#Cc3cccnc3)cc2O[C@@H]1CN(C)CC1CCOCC1	i
O=C(CCCN1C(=O)c2ccccc2C1=O)Nc1cccc(Cl)c1Cl	i
CCOC(=O)c1c(NC(=O)CSc2nc3ccccc3c(=O)[nH]2)sc2c1CCCC2	i
CN(C)c1ccc2c(c1)[C@@H]1C[C@H](CC(=O)NCc3ccc(Cl)cc3)O[C@H](CO)[C@@H]1O2	i
C[C@@H]1CN([C@H](C)CO)S(=O)(=O)c2ccc(-c3ccccc3F)cc2O[C@H]1CN(C)S(C)(=O)=O	i
Cc1cc(=O)[nH]c(SCCOc2ccccc2C#N)n1	i
COc1ccc(N(C(=O)C2CCCCC2)S(=O)(=O)c2cccc3cccnc23)cc1	i
COc1ccc(S(=O)(=O)N(C)CC(=O)Nc2cccc(C(C)=O)c2)cc1Cl	i
Cc1ccc(-c2cnc3c(c2)C(=O)N([C@H](C)CO)C[C@H](C)[C@H](CN(C)Cc2ccccc2F)O3)cc1	i
C[C@@H]1CN([C@H](C)CO)S(=O)(=O)c2ccc(/C=C/c3ccccc3)cc2O[C@@H]1CN(C)C	i
Cc1cccc(OCC(O)CNC(C)(C)CO)c1C (centres undefined)	i
CC(C)c1ccc(OCC(=O)Nc2cc(C(=O)O)cc(C(=O)O)c2)cc1	i
COc1cc(NC(=O)CN(C)S(=O)(=O)c2ccc(C)cc2)cc(OC)c1	i
COc1cccc(S(=O)(=O)N[C@H]2CC[C@H](CC(=O)NC3CCC3)O[C@@H]2CO)c1	i
CC(=O)N(C)C[C@H]1Oc2ncc(-c3ccc(C)cc3)cc2C(=O)N([C@@H](C)CO)C[C@H]1C	i
CC(NS(=O)(=O)c1ccccc1)C(=O)Nc1cc(Cl)ccc1Oc1ccccc1 (centres undefined)	i
CCn1cc(CNC(=S)Nc2cc(OC)ccc2OC)cn1	i
CC1CCCCC1NC(=O)CSc1nnc(N)s1 (centres undefined)	i
CC(C)NC(=O)N(C)C[C@@H]1OCc2ccccc2-c2ccccc2C(=O)N([C@H](C)CO)C[C@@H]1C	i
COc1cc(CNC2CCCC2)cc(I)c1OCC(N)=O	i
CC(Oc1ccc(F)cc1)C(=O)NCCN1CCOCC1 (centres undefined)	i
COc1ccc(C#Cc2ccc3c(c2)O[C@@H](CN(C)C(=O)NC2CCCCC2)[C@H](C)CN([C@H](C)CO)S3(=O)=O)cc1	i

The results go on:
SMILES	ID4 SMM
C[C@@H]1CN([C@H](C)CO)S(=O)(=O)c2ccc(-c3ccc(F)cc3)cc2O[C@@H]1CN(C)Cc1ccccc1C(=O)O	i
CC(C(=O)N1CCN(C)CC1)N(c1ccc(Oc2ccccc2)cc1)S(C)(=O)=O (centres undefined)	i
COCc1cc(O)c(O)c(O)c1-c1c(COC)cc(O)c(O)c1O	i
COc1cc([N+](=O)[O-])ccc1NC(=O)CS(=O)(=O)Cc1ccccc1	i
COCC#Cc1cnc2c(c1)C(=O)N([C@H](C)CO)C[C@@H](C)[C@H](CN(C)Cc1ccc(F)cc1)O2	i
Cc1ccc2c(C)c(C(=O)Nc3sc4c(c3C(=O)NCc3cccnc3)CCCC4)oc2c1	i
O=c1c2ccccc2ncn1CCCOc1ccccc1[N+](=O)[O-]	i
Cc1ccc(C)c(NC(=O)c2ccc(OCC(=O)Nc3cccc(Cl)c3)cc2)c1	i
O=C(C[C@@H]1C=C[C@H](NC(=O)c2ccccn2)[C@H](CO)O1)NCc1cc(F)cc(F)c1	i
C/C=C/c1ccc2c(c1)O[C@H](CN(C)C(=O)NC1CCCCC1)[C@@H](C)CN([C@@H](C)CO)S2(=O)=O	i
O=C(CSc1ccccn1)N1CCN(S(=O)(=O)c2ccccc2)C1	i
Cc1cccc(N2C(=O)CC(SCc3nc4ccccc4[nH]3)C2=O)c1 (centres undefined)	i
O=C(CS(=O)(=O)Cc1ccccc1)Nc1cccnc1	i
Cc1ccc(-c2ccn(-c3ccc(C)c(Cl)c3)c(=S)n2)cc1	i
CC(NS(=O)(=O)c1ccc(Cl)cc1)C(=O)Nc1c(F)cccc1F (centres undefined)	i
CC(C)CC#Cc1ccc2c(c1)O[C@@H](CN(C)C)[C@H](C)CN([C@@H](C)CO)S2(=O)=O	i
COc1ccc(NC(=O)CN2CCN(S(=O)(=O)N(C)C)CC2)cc1	i
N#Cc1c(-c2ccccc2)nc2n1CCS2	i
CCCC#Cc1cnc2c(c1)C(=O)N([C@H](C)CO)C[C@@H](C)[C@H](CN(C)Cc1ccccc1F)O2	i
COc1ccc(NC(=O)c2ccc(OC(=O)CCN3C(=O)c4ccccc4C3=O)cc2)cc1	i
O=C(CSc1nc2ccccc2s1)Nc1cc(Cl)cc(Cl)c1	i
Cc1ccccc1-c1ccc2c(c1)O[C@H](CN(C)C)[C@@H](C)CN([C@@H](C)CO)S2(=O)=O	i
C[C@H](CO)N1C[C@H](C)[C@@H](CN(C)C(=O)c2cccc(F)c2)Oc2ncc(-c3ccccc3)cc2C1=O	i
Cc1cc(C)c(NC(=O)CN(C)S(=O)(=O)c2ccccc2)c(C)c1	i
C[C@H]1CN([C@@H](C)CO)C(=O)c2ccccc2-c2ccccc2CO[C@H]1CN(C)Cc1ccc(F)cc1	i

Retrieved one by one from the list above, 2 records:
SMILES	ID4 SMM
COCc1cc(O)c(O)c(O)c1-c1c(COC)cc(O)c(O)c1O	i
CC(C)CC#Cc1ccc2c(c1)O[C@@H](CN(C)C)[C@H](C)CN([C@@H](C)CO)S2(=O)=O	i

More compounds.
SMILES	ID4 SMM
Cc1cc(C(F)(F)F)nc(SCC(=O)Nc2ccc(Cl)cc2)n1	i
O=c1[nH]c(=S)c2c(n1N1CCOCC1)CCC2	+
CNS(=O)(=O)c1cc(OCC(N)=O)c(C)cc1Cl	i
Cc1ccc(NC(=O)c2ccc(S(=O)(=O)N3CC(C)CC(C)C3)cc2)c(C(=O)c2ccccc2)c1 (centres undefined)	i
COc1ccc(C)cc1S(=O)(=O)N(CC(=O)O)c1cc(C)cc(C)c1	i
CCn1c(SCC(=O)Nc2ccc([N+](=O)[O-])cc2)nnc1-c1ccccc1F	i
Cc1ccccc1CN(C)C[C@@H]1OCc2cn(nn2)CCCC(=O)N([C@H](C)CO)C[C@H]1C	i
C[C@@H]1CN([C@H](C)CO)C(=O)c2cc(Br)cnc2O[C@H]1CN(C)CC1CCCC1	i
Cc1ccc(NC(=O)CSC2CC(=O)N(c3ccccc3)C2=O)cc1C (centres undefined)	i
O=C1C(=O)N(Cc2ccco2)C(c2cccs2)C1C(=O)c1cccs1 (centres undefined)	i
COc1ccccc1CCNC(=O)c1cc(-c2ccccc2)nc2ccccc12	i
C[C@@H]1CN([C@@H](C)CO)C(=O)c2cc(C3=CCCCC3)cnc2O[C@H]1CN(C)C(=O)c1ccccc1	i
Cc1ccc(-c2cn(S(=O)(=O)c3cccc4nsnc34)nc2N)cc1	i
Cc1ccc(-c2ccc3c(c2)O[C@H](CN(C)CC2CC2)[C@H](C)CN([C@@H](C)CO)S3(=O)=O)cc1	i
CCn1c(SCC(=O)Nc2c(C)cc(C)cc2C)nnc1-c1ccc(Br)cc1	i
C[C@H]1CN([C@@H](C)CO)C(=O)c2cc(C3=CCCC3)cnc2O[C@H]1CN(C)C(=O)C1CC1	i
COc1ccc(N(CC(=O)Nc2cc(C)ccc2C)S(C)(=O)=O)cc1OC	i
CCCC#Cc1cnc2c(c1)C(=O)N([C@H](C)CO)C[C@@H](C)[C@H](CN(C)C(=O)Nc1cc(F)ccc1F)O2	i
CCS(=O)(=O)c1nc2ccccc2n1CC(=O)N1CCOCC1	i
CCc1c(C)sc(NC(=O)COc2ccccc2)c1C(=O)N1CCOCC1	i
O=C(CC1Nc2cccc3cccc(c23)NC1=O)Nc1ccc(F)cc1 (centres undefined)	i
O=[N+]([O-])c1ccccc1-c1ccc(-c2nn3c(-c4ccccc4)nnc3s2)o1	i
C[C@@H]1CN([C@H](C)CO)C(=O)c2cc(C#CC3CCCCC3)cnc2O[C@H]1CN(C)S(=O)(=O)c1cccc(F)c1	i
COc1cccc(NC(=O)N[C@@H]2C=C[C@H](CC(=O)NCc3ccncn3)O[C@H]2CO)c1	i
CCOc1ccccc1OCC(=O)Nc1cc(Cl)ccc1OC	i

Other structures:
SMILES	ID4 SMM
CC(=O)N(C)C[C@@H]1Oc2ncc(C#CCc3ccccc3)cc2C(=O)N([C@H](C)CO)C[C@@H]1C	i
COc1cccc(C#Cc2cnc3c(c2)C(=O)N([C@H](C)CO)C[C@H](C)[C@H](CN(C)C)O3)c1	i
Cc1cc(C)c(S(=O)(=O)NCC(=O)Nc2cccc(Cl)c2Cl)c(C)c1	i
C[C@H](CO)N1C[C@H](C)[C@H](CN(C)Cc2ccccn2)Oc2ncc(C#CCC3CCCC3)cc2C1=O	i
Cc1ccc(N=C2NC(=O)CC(C(=O)Nc3ccc(Cl)cc3)S2)cc1C (centres undefined)	i
Cc1cc(SCC(=O)Nc2ccc(SC(F)F)cc2)nc2ccccc12	i
CCS(=O)(=O)N[C@@H]1C=C[C@H](CC(=O)Nc2ccc(-c3ccccc3)cc2)O[C@@H]1CO	i
CCOc1ccc(NC(=O)Cn2c(-c3ccc(OC)cc3)nc3sc4c(c3c2=O)CCCC4)cc1	i
C[C@H]1CN([C@@H](C)CO)C(=O)Cc2cc(N(C)C)ccc2O[C@@H]1CN(C)C(=O)Nc1ccc(F)cc1	i
Cc1ccc(S(=O)(=O)N(C)C[C@H]2Oc3ncc(-c4ccncc4)cc3C(=O)N([C@H](C)CO)C[C@@H]2C)cc1	i
Cc1cc(C)c(-c2cc(C(F)(F)F)no2)c(=O)[nH]1	i
CCc1cccc(C)c1NC(=O)COc1ccc(NC(C)=O)cc1	i
CC(=O)Nc1c(O)nc(SCC(=O)N(c2ccccc2)c2ccccc2)[nH]c1=O	i
C[C@H]1CN([C@@H](C)CO)C(=O)c2cc(C3=CCCCC3)cnc2O[C@@H]1CN(C)CC1CCOCC1	i

A draw from above in order of SMILES length, ascending.
SMILES	ID4 SMM
COc1ccccc1CCNC(=O)c1cc(-c2ccccc2)nc2ccccc12	i
COc1ccc(N(CC(=O)Nc2cc(C)ccc2C)S(C)(=O)=O)cc1OC	i
COc1cc([N+](=O)[O-])ccc1NC(=O)CS(=O)(=O)Cc1ccccc1	i
CC(=O)Nc1c(O)nc(SCC(=O)N(c2ccccc2)c2ccccc2)[nH]c1=O	i
CNC[C@H]1Oc2cc(Br)ccc2S(=O)(=O)N([C@H](C)CO)C[C@H]1C	+
C[C@H](CO)N1C[C@H](C)[C@H](CN(C)Cc2ccccn2)Oc2ncc(C#CCC3CCCC3)cc2C1=O	i
C[C@H]1CN([C@@H](C)CO)C(=O)c2ccccc2-c2ccccc2CO[C@H]1CN(C)Cc1ccc(F)cc1	i

Compound activity as filed in PubChem BioAssay.
